NPYLR7 ag – mosquito NPYLR7 agonism; HEK293T NPYLR7/Galpha15, GCaMP6s calcium fluorescence; activation, % at 10 µM; 270,000 compounds, 0.15% hits; in the data active = activation above about 40%;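 note: 0% = vehicle and 100% = reference agonist at the receptor; some compounds past the cut are filed as inactive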
NPYLR7 ag max-min – second read-out of NPYLR7 ag, no call of its own (marks repeat the call); activation, %; measured here: Max-Min RFU normalised activation; some inactives read as strong as hits;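 span of the calcium signal over five minutes; 0% = vehicle and 100% = native peptide agonist; compound fluorescence can raise it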
Active calls of the source: *; & = joins results of further samples.

no.	Compound	NPYLR7 ag	NPYLR7 ag max-min
1	COc1ccc2nc(CNC3CCC(=O)N(Cc4ccccc4)CC3)[nH]c2c1 (stereo not drawn)	-1	0
2	COCCCN(CC(=O)N(CCc1c[nH]c2ccccc12)Cc1ccc(Cl)cc1)C(=O)c1ccco1	1	9
3	O=C(CC(c1ccccc1)c1cn(Cc2ccccc2)c2ccc([N+](=O)[O-])cc12)N1CCN(Cc2ccccc2)CC1 (stereo not drawn)	-1	-2
4	Cc1nc(N2CCOCC2)ncc1-c1cc(=O)[nH]c(N2CCC(Cc3ccccc3)CC2)n1	0	34
5	CCCC(O)(CCC)c1ccc(CN(Cc2ccc3c(c2)OCO3)Cc2ccco2)o1	16	28
6	Cc1ccc2c(Nc3ccc(S(N)(=O)=O)cc3)c(C(=O)OC(C)C)cnc2n1	18	7
7	O=C(C1CCCC1)N1CCCC(OCc2ccccc2Cl)C1 (stereo not drawn)	-9	-2
8	CO[C@H]1CN(CCc2ccccc2)[C@H]2Cc3c(oc4ccccc34)[C@@H]1C2	21	30
9	Cn1c(=O)c2c(nc(SCCCc3ccccc3)n2Cc2ccccc2)n(C)c1=O	5	3
10	CCC(=NNc1ccnc2cc(Cl)ccc12)c1ccc(OC)c(OC)c1	15	7
11	Cn1c(=NNC(=O)c2cccc3ccccc23)sc2ccccc21	-6	-9
12	O=C(NCCc1ccccc1)N1CCN(C(c2ccccc2)c2ccc(F)cc2)CC1 (stereo not drawn)	15	7
13	CN1CCN(n2c3c(c(SCC(=O)Nc4ccc([N+](=O)[O-])cc4)nc2=O)CCCC3)CC1	-4	-13
14	CC=Cc1ccc(OCCN2C(=O)NC(c3ccccc3)(c3ccccc3)C2=O)c(OC)c1	-6	7
15	O=C(Nc1sc2c(c1-c1nc3ccccc3[nH]1)CCCC2)C1CCCO1 (stereo not drawn)	3	1
16	COCCCNC(=O)c1nn(-c2ccc(C)cc2)c(=O)n(Cc2ccccc2)c1=O	10	8
17	O=C1C(N2CCCCC2)CCN1c1ccccc1 (stereo not drawn)	-14	-24
18	O=S(=O)(c1cccc2nsnc12)N1CCN(c2cccc(Cl)c2)CC1	2	-1
19	CCC(O)CN(CCOC)Cc1cc(OC)cc(OC)c1 (stereo not drawn)	22	22
20	CC(C)(C)c1cc(=O)n2[nH]cc(-c3ccccc3)c2n1	0	4
21	CN(C)CC(C)(C)CN1CC(CN2CCOCC2)Oc2ncccc2C1=O (stereo not drawn)	-3	-2
22	CC(C)(C)c1cc(=O)n2[nH]cc(-c3ccc(F)cc3)c2n1	-3	-8
23	c1ccc(OCCn2c(SCc3nc4ccccc4[nH]3)nc3ccccc32)cc1	-10	-18
24	Cc1ccc(-c2ccc(=O)n(C)n2)cc1C	-2	-2
25	C=CCn1c(=S)[nH]c2sc3c(c2c1=O)CCC(C)C3 (stereo not drawn)	-3	-6
26	COc1cccc(CNC(=O)CSc2nc(=O)n(Cc3ccncc3)c3c2CCC3)c1	0	0
27	COc1ccc(S(=O)(=O)NC(=O)C2(C)CCN2C(=O)CC(c2ccccc2)c2ccccc2)cc1 (stereo not drawn)	8	8
28	Cc1cccnc1C1=NOC(Cc2ccccc2)C(=O)N1Cc1cccc(F)c1 (stereo not drawn)	5	4
29	CCOC(=O)c1c(C)c(C(=O)CN(C2CC2)S(=O)(=O)c2cccc3cccnc23)c(C)n1CC	-7	1
30	CSCCCNC(=O)c1ccc(-c2cc(-c3ccc(Cl)cc3)[nH]n2)cc1	18	14
31	Cc1ccsc1C(=O)NCc1ccccc1CN1CCN(C)CC1	6	3
32	Cc1nc(C(C)C)sc1C(=O)N1CCC2(CCCO2)CC1	5	4

Reprinted from the part before: three entries, followed by the next part.
no.	Compound	NPYLR7 ag	NPYLR7 ag max-min
30	CSCCCNC(=O)c1ccc(-c2cc(-c3ccc(Cl)cc3)[nH]n2)cc1	18	14
31	Cc1ccsc1C(=O)NCc1ccccc1CN1CCN(C)CC1	6	3
32	Cc1nc(C(C)C)sc1C(=O)N1CCC2(CCCO2)CC1	5	4
33	c1ccc(CCN2CCCC(Cn3cnnc3)C2)cc1 (stereo not drawn)	5	2
34	O=c1nc(N2CCCCCC2)nc(N2CCCCCC2)[nH]1	15	7
35	CCc1ccccc1NC(=O)NC1CC(=O)N(CC(C)(C)C)C1 (stereo not drawn)	6	2
36	CC(C)c1ncc(-c2cc(NCc3ccccn3)nc3[nH]ccc23)[nH]1	-1	-6
37	CN1CCN(c2ccccc2NC(=O)CSCc2ccc(Cl)s2)CC1	12	5
38	COc1ccc(S(N)(=O)=O)cc1OC	8	9
39	Cc1cccc(Nc2ccccc2C(=O)O)c1C	-8&-3&-5	-12&-6&-9
40	CC(C)NC(=O)C1CCCC(NC(=O)C/C=C/c2ccc(F)cc2)C1 (stereo not drawn)	10	6

Ordered by heavy-atom count (lowest first): six of the compounds above.
no.	Compound	NPYLR7 ag	NPYLR7 ag max-min
38	COc1ccc(S(N)(=O)=O)cc1OC	8	9
17	O=C1C(N2CCCCC2)CCN1c1ccccc1 (stereo not drawn)	-14	-24
32	Cc1nc(C(C)C)sc1C(=O)N1CCC2(CCCO2)CC1	5	4
18	O=S(=O)(c1cccc2nsnc12)N1CCN(c2cccc(Cl)c2)CC1	2	-1
16	COCCCNC(=O)c1nn(-c2ccc(C)cc2)c(=O)n(Cc2ccccc2)c1=O	10	8
27	COc1ccc(S(=O)(=O)NC(=O)C2(C)CCN2C(=O)CC(c2ccccc2)c2ccccc2)cc1 (stereo not drawn)	8	8

The list continues.
no.	Compound	NPYLR7 ag	NPYLR7 ag max-min
41	COc1ccc2c(c1)C1(CC(=O)N(CC(=O)N(C)C)C1=O)C(=O)N2Cc1nc(-c2ccc(Cl)cc2)no1 (stereo not drawn)	-12	-19
42	Cc1nc(N)ccc1I	17	22
43	COc1cc(N2CCCC(OCc3ccccn3)C2)ncn1 (stereo not drawn)	19	7
44	Cc1noc(C)c1COc1ccc(CNCc2cnn(C)c2)cc1	-1	-2
45	CNc1nc(N2CC[C@@H](c3ccc4ccccc4c3)[C@H](O)C2)ncc1F	9	8
46	O=C(Nc1nc2c(Cl)cccc2s1)c1cc(=O)c2ccccc2o1	-6	-8
47	CCN(Cc1cnc(N(C)C)s1)CC1CCCN(CCc2cccc(F)c2)C1 (stereo not drawn)	5	1
48	O=C(OC1(C(F)(F)F)C(=O)Nc2cc(Cl)ccc21)c1cc(F)c(F)c(F)c1F (stereo not drawn)	-11	-16
49	O=C(NCCCN1CCOCC1)c1cccc(CSc2nc(Cl)cc(N3CCCC3)n2)c1	14	25
50	O=C(c1cnn2ccccc12)N1CC[C@@H](c2ccc3c(c2)OCO3)[C@H](O)C1	8	5
51	c1ccc(Cn2cnc3c(Nc4ccc5[nH]ccc5c4)nccc32)cc1	-5	-6
52	COc1ccc(CCN(C)C(=O)C2CCN(C(=O)OC(C)(C)C)CC2)cc1OC	-6	-7
53	CS(=O)(=O)NCCC1CN(Cc2ccnc3ccccc23)CCO1 (stereo not drawn)	9	5
54	O=C(c1cccc2ccnn12)N1CCc2c([nH]c3ccccc23)C1	-3	-5
55	CCOC(=O)c1ccc(NC(=O)N2CCN(C(=O)c3cc4ccsc4n3Cc3cccc(OC)c3)CC2C)cc1 (stereo not drawn)	-2	3
56	N#Cc1c(CSc2nnc(NC3CC3)s2)cn2ccccc12	6	1
57	COc1ccc(CCN2C(=O)CC(C(=O)Nc3cccc(C)c3)SC2=Nc2ccc(F)cc2)cc1 (stereo not drawn)	1	-1
58	Cc1nc2ncc3c(=O)n(C)ccc3n2n1	2	6
59	CCCc1[nH]n(-c2ccc(Cl)cc2)c(=O)c1C1=C([n+]2cc(C)cc(C)c2)C(=O)N(CCC)C1=O	11	11
60	COc1ccc(C2CCCN2C(C(N)=O)c2ccccc2)cc1 (stereo not drawn)	0	1
61	CNS(=O)(=O)c1ccc(C(=O)N(C)C2CCCC(C)C2)o1 (stereo not drawn)	2	1
62	O=C(CCN1C(=O)C2CC=CCC2C1=O)NCC(c1ccco1)N1CCCCC1 (stereo not drawn)	12	5
63	O=C(c1ccc2c(c1)OCO2)N1CCCC(N2CCN(c3ccccc3F)CC2)C1 (stereo not drawn)	-1	6
64	CC1Sc2ccc(C(=O)NCCc3ccccc3)cc2NC1=O (stereo not drawn)	-5	11
65	Cc1ccc(COC(=O)C(C)NC(=O)c2ccccc2)cc1 (stereo not drawn)	6	6
66	Cc1cc(C)c(C)c(C(=O)/C=C/C(=O)O)c1C	-3	-3
67	NCC1CCCN1CCc1ccccc1 (stereo not drawn)	16	8
68	NC[C@H]1O[C@H](O[C@H]2[C@H](O)[C@@H](O[C@H]3O[C@H](CO)[C@@H](O)[C@H](N)[C@H]3O)[C@H](N)C[C@@H]2N)[C@H](N)[C@@H](O)[C@@H]1O	-9	-19
69	CNCC(=O)N1CCCC1c1nc2c(C)cccc2[nH]1 (stereo not drawn)	-1	17
70	Cc1cnc(CNC(=O)c2cnn3c2CCCC3)cn1	-3	-3
71	CCOC(=O)CNC(=O)/C(=C/c1ccccc1[N+](=O)[O-])NC(=O)c1ccccc1	10	10
72	Cc1ccccc1-c1ccc(-n2cncc2C(=O)NCc2cc(C(F)(F)F)ccc2Cl)cc1	-2	3
73	CCC(NCCC(=O)Nc1cc(C)on1)c1ccc(OC)cc1 (stereo not drawn)	-1	-5
74	Cc1noc(-c2ccc3c(c2)OCO3)c1C(=O)N1CCCC(CCc2ccc(C(C)(C)C)cc2)C1 (stereo not drawn)	24	14
75	CC(C)c1nnsc1Cn1cc2ncccc2c1O	-4	-8
76	C#CCNC(=O)CN1CCCc2ccc(C(F)(F)F)cc21	5	2
77	O=C(/C=C/c1ccccc1)N/C(=C/c1ccccc1)C(=O)OCN1C(=O)c2ccccc2C1=O	-11	-20
78	CCCCCCCOc1ccc(NC(=O)N2CCC[C@H]2C(=O)N2CCC(C(=O)NCc3cccc(OC)c3)CC2)cc1	24	30
79	COC(=O)c1ccccc1C(=O)Oc1coc(CSc2ncccn2)cc1=O	-7	-1
80	CCOC(=O)C1=C(C)N(CC)C(=S)NC1c1ccc(NC(=O)Nc2ccc(F)c(F)c2)cc1 (stereo not drawn)	12	7
81	CC(C)C(=O)N1CCN(c2ccc3c(c2)CCC3)C(=O)C1C (stereo not drawn)	-3	1
82	CCCCN1CCN(C(=O)c2cn(C(C)C)cc3c(=O)n(-c4ccccc4)nc2-3)CC1	2	-1
83	CN(C)S(=O)(=O)CCNC(=O)C(=O)N1CCc2ccccc21	12	11
84	CC12CCCCC1=NC(c1ccc([N+](=O)[O-])cc1)=[N+]2[O-] (stereo not drawn)	1	1
85	CC(C)n1c(=S)[nH]c2ccccc21	-4	-4
86	COc1cccc(COC(CN2CCN(C(=O)c3cccnc3SC)CC2)c2ccc(Cl)cc2)c1 (stereo not drawn)	6	-2
87	CCC1CN(c2c(C#N)c(=O)n(C)c(=O)n2C)CCO1 (stereo not drawn)	-2	-1
88	CCc1nccc(CN2CCCC(CNC(=O)c3ccc[nH]3)C2)n1 (stereo not drawn)	0	-3
89	Fc1ccc(-c2[nH]ncc2CN(Cc2ccccn2)CC2CCCO2)cc1 (stereo not drawn)	2	3
90	COc1cccc(Cn2ccnc2CN(C(=O)c2ccc(F)cc2)C(C)C)c1	27	20
91	Nc1nc(N)nc(COc2ccc(-c3ccccc3)cc2)n1	14	8
92	O=C(CNC(=O)c1cccs1)N=Nc1c(O)[nH]c2ccc([N+](=O)[O-])cc12	-3	-7
93	COc1ccc(NC(=O)C2CCN(C(=O)[C@@H](Cc3ccccc3)NC(=O)Nc3c(F)c(F)c(F)c(F)c3F)CC2)cc1	25	31
94	Cc1ccc(C2(O)CCN(C(=O)Cc3ccccc3C)CC2)nc1	2	2
95	COC(=O)c1ccc(NC(=O)CSc2ccc3nnc(-c4ccc(OC)cc4)n3n2)cc1	10	10
96	CCOC(=O)C1(Cc2ccccc2)CCCN(C(=O)c2cnn(Cc3ccccc3)c2)C1 (stereo not drawn)	12	16

The list continues.
no.	Compound	NPYLR7 ag	NPYLR7 ag max-min
97	Cc1ccccc1-c1ccc(-n2cncc2C(=O)N(C)CCc2c[nH]c3ccccc23)cc1	4	3
98	COc1cccc(Cc2c(C)nc(C)nc2N2CCN(C(=O)c3ccc(C(F)(F)F)cc3)CC2)c1	1	5
99	COc1ccc(C2c3cccn3-c3ccccc3N2C(=O)CN(C(=O)c2ccccc2OC)C2CC2)cc1 (stereo not drawn)	0	7
100	CCN(CC(=O)NC(c1ccccc1)c1ccc(Cl)cc1)C1CCS(=O)(=O)C1 (stereo not drawn)	-1	-4
101	Cc1c(Cl)cccc1-c1ccc(CNc2nn[nH]n2)o1	-3	-2
102	CC(C)c1ccc(NC(=O)N(CC(=O)N(Cc2ccc3c(c2)OCO3)Cc2cccs2)C(C)C)cc1	10	18
103	CCC(c1nc2ccccc2c(=O)n1C)N(Cc1ccco1)C(=O)c1ccc(C(C)(C)C)cc1 (stereo not drawn)	13	3
104	O=C1CCCN1CCC(=O)N1CCCC(N2CCN(Cc3ccc4c(c3)OCO4)CC2)C1 (stereo not drawn)	12	5
105	O=C(C1CC1)N1CCN(c2nc(-c3ccccc3Cl)nc3cc(Cl)ccc23)CC1	0	2
106	CCOc1cc(C(=O)NNC(=O)c2n[nH]c(=O)c3ccccc23)ccc1OCC(C)C	5	0
107	Cn1cccc1-c1nnc(SCc2ccccc2-c2ccccc2)o1	-6	-11
108	O=C(NC1=NCCS1)C12CC3CC(CC(C3)C1)C2	0	-2
109	COc1ccccc1C(=O)CN1C(=O)CON=C1c1cccc2ccccc12	0	-4
110	CC(C)N(CC(=O)N1c2ccccc2-n2cccc2C1c1ccc(F)cc1)C(=O)c1ccc(Cl)cc1 (stereo not drawn)	-3	-3
111	COc1ccc(Cc2nncn2C(C)c2ccccc2)cc1 (stereo not drawn)	1	-2

Only part of the results is shown, so the mix of outcomes need not match the whole.
